Rango release inh = inhibitors of RanGTP-induced Rango-importin beta complex dissociation; O95149+P62826; Biochemical FRET Rango-importin beta, RanGTP-induced dissociation; Potency, µM (titrated, usually from 46.1 µM), without a hit: at the highest dose activity change, negative = inhibition; 340,000 tested, 0.071% active; AID 540253; active means falling FRET ratio curve, often poorly fitted, with flat reads before Ran was added; inconclusive means other falling curves, or compound fluorescence or quenching; inactive means flat or rising ratio curve;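 further: potency means the concentration at half of the fitted maximal effect; % of control where 0% means no effect; nearly all actives have a fitted effect of over 45% in size; -100% = wells without RanGTP and RCC1; the record marks most hits as doubtful in a second field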
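FRET read at 45 min, room temperature: inhibitors block the CFP/YFP signal rise when RanGTP (0.6 uM Ran, 2 mM GTP, 0.2 uM RCC1) frees Rango (0.1 uM) from importin beta (0.25 uM). Pre-read after 5 min compound exposure flags interference.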
miR-21 FLuc = miR-21 reporter, rising signal | HeLa miR-21 FLuc reporter, luciferase, 48 h | Potency, µM (top dose mostly 38.3 µM), for inactives: at the highest dose reporter change, positive = more light | 340,000 tested, under 10 active | AID 2288; active = well fitted rising curve with a large enough effect; inconclusive = small, poorly fitted or top-dose-only effect; inactive = no such curve, though single readings can be large or run the other way;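 further: % of control where 0% means no effect; miR-21 action dims this reporter so a rising signal means less miR-21 action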
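Using DMEM plus 10% FBS, HeLa miR-21-FLuc cells are incubated with test compounds (final up to about 40uM) for 48 hours; firefly luciferase signal is then imaged following reagent-mediated lysis.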
Rango complex inh = prevents formation of the Rango-importin beta complex; Q14974; Rango CFP/YFP FRET sensor + importin beta, 45 min; Potency, µM (doses to about 92.2 µM), for inactives: at the highest dose inhibition of complex formation; 340,000 tested, 0.031% active; active = rising FRET ratio curve, often small or poorly fitted; inconclusive = mostly compound fluorescence or quenching in the first reads; inactive = flat curves in all reads;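 further: potency means the concentration at half of the fitted maximal effect; 0% = DMSO wells and 100% = buffer wells lacking importin beta; nearly all actives have a fitted effect of over 15% in size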
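Inhibition scored from the CFP 486 nm/YFP 530 nm FRET ratio 45 min after adding 0.125 microM importin beta to 50 nM Rango biosensor preincubated 5 min with compound (room temperature, PBS with DTT, Tween-20, BSA). No-importin wells as positive control.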
GLA inh pH 4.5 = inhibitors of human alpha-galactosidase A at pH 4.5; P06280; 230,000 tested, under 10 active; activity change, negative = inhibition, % at 105 µM; purified enzyme, 4-MU-alpha-Gal fluorescence, pH 4.5; AID 1467; inconclusive = small, poorly fitted or top-dose-only inhibition, or a rising curve; inactive = flat fitted curve, though single readings scatter; no compound was filed as active;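 further: 0% = full activity with enzyme and -100% = basal without enzyme; dose as in the result columns while the protocol names 77 µM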
Target sequence (P06280 whole entry, looked up): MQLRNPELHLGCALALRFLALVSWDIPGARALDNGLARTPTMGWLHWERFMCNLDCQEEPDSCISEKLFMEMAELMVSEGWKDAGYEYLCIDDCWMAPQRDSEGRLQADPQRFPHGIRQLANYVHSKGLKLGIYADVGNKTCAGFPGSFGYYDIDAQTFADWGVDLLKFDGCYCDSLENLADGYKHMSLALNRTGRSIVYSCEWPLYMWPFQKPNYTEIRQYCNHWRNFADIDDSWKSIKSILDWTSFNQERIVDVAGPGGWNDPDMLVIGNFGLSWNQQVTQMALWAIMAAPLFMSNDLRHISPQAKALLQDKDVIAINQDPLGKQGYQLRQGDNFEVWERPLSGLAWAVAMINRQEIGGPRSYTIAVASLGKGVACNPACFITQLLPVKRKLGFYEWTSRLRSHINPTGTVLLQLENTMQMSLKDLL
Active calls of the source: *; ? = inconclusive; . = no result given; & = joins results of further samples; [ ] = remark or other dose. A portion of the library (hit frequency here may not be typical).

Results follow in this order: GLA inh pH 4.5, miR-21 FLuc, Rango complex inh, Rango release inh
O=C(CN1CCCCCC1)Nc1cccc2c1OCO2
→ 7.4, -3.8%, -0.3%, 12.4%
O=C(CNC(=O)c1cccs1)N/N=C/c1ccccc1[N+](=O)[O-]
→ ., -24.5%, 1.0%, 4.7%
COc1cccc(/C=C/C(=O)OCC(=O)NCCC2=CCCCC2)c1OC
→ ., ., 2.1%, 3.5%
COc1ccc(/C=N/NC(=O)CSCC(=O)Nc2ccccc2)cc1OC
→ 4.6, -8.9%, -2.2%, -10.3%
COc1ccc(NC(=O)COc2ccc3oc(=O)cc(C)c3c2)cc1
→ 1.1, 6.5%, 1.5%, 0.7%
COc1ccc2c(c1)[nH]c1c(=O)n(/N=C/C3C(C)C=C(C)CC3C)c(=O)[nH]c12 (centres undefined)
→ 10.4, 1.1%, 2.5%, 2.8%
COCCOC(=O)/C(=C\c1cc(C(C)(C)C)c(O)c(C(C)(C)C)c1)C(C)=O
→ -16.6, -8.0%, -3.4%, -14.3%
O=C(CCN1C(=O)c2ccccc2S1(=O)=O)Nc1ccccc1
→ 7.3, -3.9%, 1.6%, 5.7%
Cc1ccc(C)n1C1CCS(=O)(=O)C1 (centres undefined)
→ -19.3, -6.2%, 0.7%, 0.9%
CCCCNC(=O)c1onc(CSc2ccncc2)c1C(=O)NCCCC
→ -4.0, 0.5%, -0.2%, -11.5%
CCOc1ccc(NC(=O)CN(C)C(=O)c2ccc(OCC(=O)N3CCOCC3)c(OC)c2)cc1OCC
→ ., ., -1.3%, -4.7%
COC(=O)c1ccc(Oc2c(Cl)cccc2[N+](=O)[O-])cc1
→ -10.1, -13.6%, 0.3%, -3.6%
CCc1cccc2sc(NC(=O)c3ccc(N4C(=O)CCC4=O)cc3)nc12
→ 4.6, -0.5%, -5.9%, -17.6%
CC(O)/C=C/c1cccc[n+]1C (centres undefined)
→ -6.8, -0.5%, -2.2%, 0.2%
S=C(Nc1ccc(Oc2ccccc2)cc1)N1CCN(c2ccccn2)CC1
→ -20.5, -2.5%, -5.3%, 6.2%
CC1CCCCN1CCCNC(=O)CN1C(=O)c2cccnc2Oc2ccccc21 (centres undefined)
→ ., -3.4%&2.7%, 1.4%, 8.7%
Cc1ccnc(NC(=O)CCC(=O)c2cccs2)c1
→ ., ., 1.4%, 2.4%
COc1ccc(-c2cn3ccccc3n2)cc1OC
→ -0.9, -47.1%, 4.5%, -1.0%
O=C(Nc1ccc(-n2cccn2)cc1)C1CCCCN1Cc1cccc2cccnc12 (centres undefined)
→ ., 10.8%, 0.0%, 2.0%
O=C(c1cccc(S(=O)(=O)Nc2ccc(F)cc2)c1)N1CCCC1
→ ., ., 8.7%, 12.7%
C=CCNC(=O)c1oc2ccc(S(=O)(=O)N3CCCCC3)cc2c1C
→ ., -2.8%, 2.6%, 4.8%
COC(=O)[C@]1(CC(C)C)N[C@H](c2ccc(SC3CCCCC3)cc2)[C@@H]2C(=O)N(C)C(=O)[C@@H]21
→ ., ., 5.1%, 17.1%
Cc1ccc(S(=O)(=O)NCc2ccc(C(=O)NCCN(Cc3ccccc3)C(C)C)cc2)cc1
→ -17.2, 27.3%, 0.1%, 10.5%
C=CCNC(=O)CN1CCC(O)(c2ccc(F)cc2)CC1
→ -8.1, 1.0%, ?, 1.3%
Cc1ccc(C(=O)CN2C(=O)NC3(CCOc4ccccc43)C2=O)s1 (centres undefined)
→ ., ., -2.4%, -8.8%
C=CCn1c(SCC(=O)Nc2ccc(-c3nc4ccc(C)cc4s3)cc2)nnc1-c1ccccc1
→ 16.5, -66.2%, ?, ?
O=[N+]([O-])c1ccc(Sc2n[nH]c(-c3ccncc3)n2)nc1
→ 2.7, 9.8%, 0.5%, 2.6%
Cc1cccc(CCN2C(N(C)C)=NC[C@@H]2C)c1
→ ., ., -1.5%, -8.2%
O=P(COCCO)(c1ccccc1)c1ccccc1
→ 1.3, 0.5%, 1.3%, -5.2%
CC(C)(C)NC(=O)CN(Cc1cccs1)C(=O)CNS(=O)(=O)c1ccccc1
→ -0.6, -2.5%, -0.4%, -3.6%
Cc1c(N2C(=O)C(=O)/C(=C(/O)c3ccc(Cl)cc3)C2c2ccccc2)c(=O)n(-c2ccccc2)n1C (centres undefined)
→ -6.2, 0.4%, 1.2%, -4.9%
COc1ccc(Nc2ncc(F)c(N3CCOCC3)n2)cc1
→ -0.1, -2.1%, ?, 5.5%
CN1CCN(C2=Nc3c(Cl)cc(Cl)c4cccc2c34)CC1
→ 6.6, -2.1%, 51.7µM*, 2.4%
COc1ccc(-c2nnc(SCC(=O)NC3CC3)o2)c(OC)c1
→ ., ., 1.1%, 5.3%
COc1cccc(CNC(=O)Cn2cc3c(n2)CCCCC3)c1
→ -1.1, -6.5%, 0.4%, 14.7%
CC(=O)Nc1ccc(C(=O)COC(=O)c2nc3nc(C)cc(C)n3n2)cc1
→ ., ., 0.9%, 1.3%
CCOc1ccc(S(=O)(=O)Nc2ncn[nH]2)cc1
→ ., -5.4%, -2.9%, -17.1%
COc1cc2nc(CN(C)CC(=O)Nc3ccc(N4CCOCC4)cc3)[nH]c(=O)c2cc1OC
→ 3.4, 0.5%, 0.8%, -2.7%
CC(C)N1CCc2c(sc(NC(=O)CCS(=O)(=O)c3ccccc3)c2C(N)=O)C1
→ ., 0.9%, ?, ?
O=C(O)c1ccccc1Sc1ccccc1S(=O)(=O)NC1CCCCC1
→ 5.7, 1.1%, -3.2%, 0.1%

Part of the list above, reduced to miR-21 FLuc, GLA inh pH 4.5 and Rango release inh:
SMILES	miR-21 FLuc	GLA inh pH 4.5	Rango release inh
COC(=O)[C@]1(CC(C)C)N[C@H](c2ccc(SC3CCCCC3)cc2)[C@@H]2C(=O)N(C)C(=O)[C@@H]21	.	.	17.1%
Cc1ccc(S(=O)(=O)NCc2ccc(C(=O)NCCN(Cc3ccccc3)C(C)C)cc2)cc1	27.3%	-17.2	10.5%
C=CCNC(=O)CN1CCC(O)(c2ccc(F)cc2)CC1	1.0%	-8.1	1.3%

Other entries follow.
Results follow in this order: GLA inh pH 4.5, miR-21 FLuc, Rango complex inh, Rango release inh
CC(Nc1c([N+](=O)[O-])c(=O)oc2ccccc12)C(Cl)c1ccccc1 (centres undefined)
→ -1.1, 3.5%, 0.7%, -6.4%
Cc1sc2c(c1C)CN(CCN1CCOCC1)CN2C(=O)c1ccccc1
→ 2.7[21.1 µM], -51.0%, -1.2%, -5.5%
Fc1ccc(CNC(=S)NC2CCCCCC2)cc1
→ -2.0, 1.8%, -1.5%, -4.1%
NS(=O)(=O)c1ccc(N=Cc2ccc(Br)s2)cc1
→ -7.3, -3.6%, 2.0%, -4.0%
CC(C)Sc1cc(Cl)nc(NC(=O)Nc2ccccc2)n1
→ ., -12.4%, 0.6%, 7.1%
COc1cc(SC)ccc1C(=O)NCCCOC(C)C
→ -14.6, -22.4%, 1.5%, 0.0%
CC(C)CNC(=O)CC(=O)N/N=C/c1ccc(F)cc1
→ 5.9, -9.6%, -1.5%, 8.4%
O=C(CSc1nnc(NC(=O)c2cc(Br)ccc2Cl)s1)NCC1CCCO1 (centres undefined)
→ ., -6.2%, -1.1%, -0.7%
O=C(Nc1nc(-c2ccccc2)cs1)c1ccccc1NS(=O)(=O)c1ccc(F)cc1
→ -12.0, ?, -0.8%, 0.4%
COc1ccc(N2CCN(C(=O)C3CCN(C(=O)c4ccccc4Cl)CC3)CC2)cc1
→ ., -2.1%, 2.0%, -2.4%
CC(=O)c1cccc(NC(=O)CC2CCCC2)c1
→ ., -14.0%, -3.6%, -0.3%
C[C@@H]1O[C@@H](OC[C@H]2O[C@@H](Oc3c(-c4ccc(O)cc4)oc4cc(O)cc(O)c4c3=O)[C@H](O)[C@@H](O)[C@@H]2O)[C@H](O)[C@H](O)[C@H]1O
→ ., ., -2.1%, -8.6%
COc1ccc(OCC(=O)NNC(=O)C2CCN(c3ncnc4sc(C)c(C)c34)CC2)cc1
→ ., ., 0.5%, -0.2%
CCc1nc2ccc(C(=O)N3CCN(c4cc(C)ccc4C)CC3)cc2nc1CC
→ ., -3.8%&11.7%, 1.2%, 8.4%
O=C(Nc1ccncc1)c1c(F)c(F)c(F)c(F)c1F
→ ., 2.6%, 1.7%, 5.8%
C/C(=N\Nc1ccc2nncn2n1)c1ccc(Br)s1
→ 6.3, -6.0%, 2.2%, -4.1%
CC(Oc1ccccc1)C(=O)NC1CCSc2ccccc21 (centres undefined)
→ ., ., 2.7%, -4.3%
CC(=O)N(CCC1(c2ccc(C)cc2)CCOC(C(C)C)C1)Cc1ccco1 (centres undefined)
→ -7.5, 2.0%, -0.5%, 4.8%
CCn1c(SCC(=O)c2[nH]c(C)c(C(C)=O)c2C)nnc1-c1ccccc1
→ -0.5, 16.7%, -4.2%, -25.3%
N#CC(C(=O)CCN1C(=O)C2CC=CCC2C1=O)c1nc2ccccc2[nH]1 (centres undefined)
→ 2.6, -14.2%, 3.7%, 3.8%
CCOc1ccc2nc(SC3CC(=O)N(c4ccc(OC)cc4)C3=O)sc2c1 (centres undefined)
→ 2.5, -17.7%, 0.4%, 14.7%
COC(=O)c1ccc(S(=O)(=O)N2CCC(c3nc4ccccc4o3)CC2)cc1
→ 4.8, 2.0%, -0.3%, -0.7%
COc1ccc(C(=O)NCC(=O)NCC(=O)OCC(=O)c2ccc(Br)cc2)cc1
→ ., 2.1%, -0.6%, -13.9%
O=C(Cn1nnc(-c2cccs2)n1)NCCc1ccccc1
→ -2.7, -23.0%, 2.2%, 12.5%
O=C1N/C(=C\c2ccc(O)cc2)C(=O)c2ccccc21
→ -8.9, 14.6%, 14.0%, 0.8%
COc1ccccc1NC(=O)c1cc(S(=O)(=O)N2CCC3(CC2)OCCO3)ccc1F
→ -5.2, -6.6%, ?, -0.9%
COc1ccc(NC(=O)CSc2nncn2C)c([N+](=O)[O-])c1
→ 0.1, 6.8%, -1.8%, 6.4%
CCCCOC(=O)c1sc2nc(C)cc(C)c2c1N
→ 8.4, -92.3%, ?, -14.1%
CCCN1CCN(C(=O)C2CCN(S(=O)(=O)c3ccc4c(c3)NC(=O)C(C)S4)CC2)CC1 (centres undefined)
→ ., 0.1%, 4.5%, 1.3%
CCOc1cc(C2C(C#N)=C(N)OC(C)=C2C(C)=O)c(Br)c(Br)c1OC(C)C (centres undefined)
→ -7.6, ?, -4.0%, -0.2%
O=C(NCc1ccco1)NC(=O)c1csc([N+](=O)[O-])c1
→ -1.9, -0.1%, 2.8%, -10.0%
O=S1(=O)N=C2CCCCCN2C(c2ccncc2)N1 (centres undefined)
→ 10.0, -1.1%, 1.2%, -3.9%
CCOC(=O)c1ccc(N2CCOCC2)c(NC(=O)c2ccc3c(c2)OCO3)c1
→ ., -0.6%, -0.4%, -0.3%
Cc1nnc(SCc2c(Cl)cccc2Cl)n(N)c1=O
→ 2.2, -8.0%, 4.7%, 9.8%
CC(=O)O[C@H](COc1c2ccoc2cc2oc(=O)ccc12)C(C)(C)O
→ ., ., ?, 1.5%
CN(CC1COc2ccccc2O1)C(=O)CSc1ncnc2sccc12 (centres undefined)
→ ., ., -3.1%, -8.8%
O=C(Nc1ccc([N+](=O)[O-])cc1)Nc1ccc(N2CCOCC2)c2nonc12
→ -3.7, -0.9%, 1.2%, 13.1%
N/C(=N\OC(=O)c1ccc(Cl)cc1Cl)c1cccnc1
→ 0.6, -41.8%, 1.6%, -5.0%
CC(CCc1ccccc1)NC(=O)C(Cc1ccccc1)NS(=O)(=O)c1cccs1 (centres undefined)
→ -0.9, 12.6%, 1.7%, 1.1%
CCC(C)(C)NC(=O)C(c1ccc(C)cc1)N(CC1CCCO1)C(=O)c1csnn1 (centres undefined)
→ ., 0.2%, -0.4%, -5.5%
O=C(Nc1ccc(F)cc1)Oc1ccccc1N1CCOCC1
→ -5.6, -8.2%, -1.3%, -2.9%
COc1cccc(NC(=O)CN(C)C(=O)Cc2n[nH]c(=O)c3ccccc23)c1
→ ., ., 5.5%, -2.6%
COC(=O)CS(=O)(=O)c1ccc2c(c1)CC(=O)N2
→ -2.1, -5.2%, 1.5%, -7.1%
O=C(Nc1ccc2nn(-c3ccccc3)nc2c1)c1cccs1
→ -7.5, -39.6%, -0.4%, -5.2%

Source: PubChem (National Center for Advancing Translational Sciences (NCATS))
